Rango-impB inh – qHTS Assay for Inhibitors of Rango (Ran-regulated importin-beta cargo) - Importin beta complex formation. Importin subunit beta-1 (Homo sapiens), Q14974. Rango CFP/YFP FRET sensor + importin beta, 45 min. Potency, µM (top dose mostly 92.2 µM), for inactives: top-dose inhibition of complex formation. 340,000 compounds, 0.031% hits. AID 540263, 2011; active = rising FRET ratio curve, often small or poorly fitted; inconclusive = mostly compound fluorescence or quenching in the first reads; inactive = flat curves in all reads;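 note: potency is the fitted concentration of half-maximal effect; 0% = DMSO wells and 100% = buffer wells lacking importin beta; nearly all actives have a fitted effect of over 15% in size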
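FRET biosensor Rango (snurportin 1 IBB between N-terminal EYFP and C-terminal Cerulean), 50 nM in PBS/1 mM DTT/0.02% Tween-20/0.1% BSA, preincubated 5 min RT with compound; 0.125 microM importin beta added, 45 min RT, CFP/YFP FRET ratio read.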
Rango dissoc inh – qHTS Assay for Inhibitors of RanGTP induced Rango (Ran-regulated importin-beta cargo) - Importin beta complex dissociation; Snurportin-1 (Homo sapiens) + GTP-binding nuclear protein Ran (Homo sapiens) + Importin …; Biochemical FRET Rango-importin beta, RanGTP-induced dissociation; Potency, µM (top dose mostly 46.1 µM), inactives show top-dose activity change, negative = inhibition; 340,000 compounds, 0.071% hits; active means falling FRET ratio curve, often poorly fitted, with flat reads before Ran was added; inconclusive means other falling curves, or compound fluorescence or quenching; inactive means flat or rising ratio curve;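 note: potency is the fitted concentration of half-maximal effect; % of control where 0% means no effect; nearly all actives have a fitted effect of over 45% in size; -100% = wells without RanGTP and RCC1; the record marks most hits as doubtful in a second field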
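Quantitative HTS using a FRET biosensor: 0.1 uM Rango, 0.25 uM importin beta, 0.6 uM Ran, 2 mM GTP, 0.2 uM RCC1 final, PBS with DTT, Tween-20 and BSA. Post-read taken 45 min after Ran addition.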
miR-21 FLuc – qHTS Assay for Modulators of miRNAs and/orActivators of miR-21. HeLa miR-21 FLuc reporter, luciferase, 48 h. Potency, µM (series often up to 38.3 µM), for the others: at the highest dose reporter change, positive = more light. 340,000 tested, under 10 active. AID 2288, 2010; active = well fitted rising curve with a large enough effect; inconclusive = small, poorly fitted or top-dose-only effect; inactive = no such curve, though single readings can be large or run the other way;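 note: % of control where 0% means no effect; miR-21 action dims this reporter so a rising signal means less miR-21 action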
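Using DMEM plus 10% FBS, HeLa miR-21-FLuc cells are incubated with test compounds (final up to about 40uM) for 48 hours; firefly luciferase signal is then imaged following reagent-mediated lysis.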
GLA inh pH 4.5 – qHTS Assay for Inhibitors of Human alpha-Galactosidase at pH 4.5 | activity change, negative = inhibition, % at 105 µM | purified enzyme, 4-MU-alpha-Gal fluorescence, pH 4.5 | 230,000 tested, under 10 active | AID 1467, 2008; inconclusive = small, poorly fitted or top-dose-only inhibition, or a rising curve; inactive = flat fitted curve, though single readings scatter; no compound was filed as active;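 note: 0% = full activity with enzyme and -100% = basal without enzyme; dose as in the result columns while the protocol names 77 µM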
Target sequence (P06280 whole entry, looked up): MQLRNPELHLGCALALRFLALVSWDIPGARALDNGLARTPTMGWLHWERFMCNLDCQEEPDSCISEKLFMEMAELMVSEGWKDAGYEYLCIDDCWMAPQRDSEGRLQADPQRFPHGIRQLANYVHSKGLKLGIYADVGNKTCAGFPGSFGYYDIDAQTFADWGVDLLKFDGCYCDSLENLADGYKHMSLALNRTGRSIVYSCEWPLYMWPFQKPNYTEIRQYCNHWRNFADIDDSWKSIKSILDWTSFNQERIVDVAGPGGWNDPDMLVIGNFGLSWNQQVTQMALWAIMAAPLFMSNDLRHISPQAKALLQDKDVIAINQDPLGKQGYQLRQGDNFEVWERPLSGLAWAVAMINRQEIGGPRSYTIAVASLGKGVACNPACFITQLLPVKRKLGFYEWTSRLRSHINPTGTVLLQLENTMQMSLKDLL
* marks the source's active call; other numbers are inactive results; ? = inconclusive; / = no result given; & = joins results of further samples. The list is partial; rates above refer to the full screens.

molecule,Rango dissoc inh,GLA inh pH 4.5,miR-21 FLuc,Rango-impB inh
CC(C)c1ccc(N2C(=NC(=O)C3CCCO3)SC3CS(=O)(=O)CC32)cc1 (configuration not stated),20%,/,-3%,-2.6%
CC(C)Cn1ccc(=O)n(CC(C)C)c1=O,4%,4,-11%,-0.3%
Cc1cn([C@H]2C[C@H](N=[N+]=[N-])[C@@H](CO)O2)c(=O)[nH]c1=O,-6%,/,-6%,-0.6%
COc1ccc(C2=NS(=O)(=O)N(C)C(C(=O)N3CCc4ccccc4C3)=C2)cc1OC,?,/,26%,?
CCOc1ccc2[nH]c(=O)c(CN(CCCN3CCOCC3)Cc3nnnn3Cc3ccc(OC)cc3)cc2c1,-3%,5,4%,2.8%
Cc1ccc(Sc2ccc(S(=O)(=O)Nc3ccc(CC(=O)O)cc3)cc2)cc1C,-4%,/,/,0.6%
O=C(NCCCO)Nc1ccc2nc(-c3ccco3)c(-c3ccco3)nc2c1,/,-6,2%,/
O=C(COC(=O)c1cc[n+]([O-])cc1)Nc1ccccc1Sc1ccccc1,-17%,1,0%,6.0%
CCOC(=O)CNC(=O)CN1C(=O)CC(c2ccccc2)S(=O)(=O)c2ccccc21 (configuration not stated),-5%,11,1%,-0.5%
Cc1noc(C)c1COC(=O)c1cccc(S(=O)(=O)N2CCCCCC2)c1,-6%,-5,20%,-3.4%
COc1cc(C2CC(c3cccs3)=NN2C(=O)CCl)ccc1OC(F)F (configuration not stated),?,/,?,?
Cn1c(Nc2cccc(Cl)c2)nc2ccccc21,-3%,/,-22%,0.2%
C[C@H](CO)N1C[C@H](C)[C@@H](CN(C)Cc2ccc(C(=O)O)cc2)Oc2c(NS(=O)(=O)c3ccccc3)cccc2C1=O,0%,/,/,-3.8%
NNC(=O)c1ccc(CSc2n[nH]c(=O)[nH]c2=O)cc1,0%,-1,-5%,0.0%
CCC1(c2ccccc2)NC(=O)N(CC(=O)Nc2cc(S(=O)(=O)N3CCCCC3)ccc2OC(C)C)C1=O (configuration not stated),1%,/,/,-2.6%
CCn1cc(CNC(=O)c2ccc3nc(Cc4ccccc4F)oc3c2)cn1,12%,/,-6%,-0.1%
CN(C)S(=O)(=O)N1CCN(C(=O)N2CCOCC2)CC1,1%,-5,-2%,1.6%
CCN1CCN(c2ccc(S(=O)(=O)N3CCCCC3)cc2NC(=O)c2cccc(C(F)(F)F)c2)CC1,-14%,/,/,2.7%
O=C(N/N=C/c1ccc([N+](=O)[O-])o1)c1cn(-c2ccccc2)nc1-c1ccc(Cl)cc1,19%,3,-2%,0.5%
COc1ccccc1NC(=S)NCCc1ccc(OC)c(OC)c1,-3%,/,-1%,-1.3%
Cc1cccc(NC(=O)C2CCN(S(=O)(=O)c3cccs3)CC2)c1,1%,4,6%,3.5%
O=C(NC1CCCCC1)C1CCN(C(=O)c2ccccc2Cl)CC1,21%,/,0%,-0.4%
CN(C)c1ccc(/C=N/NC(=O)c2ccc3c(c2)OCO3)cc1,-28%,/,-18%,?
Cn1cc(SCC(=O)NCC2CCCO2)c2ccccc21 (configuration not stated),-9%,3,-4%,-0.8%
Clc1ccc(-n2nnnc2-c2ccccc2)cc1,-8%,5,-5%,1.1%

Single records, from the list above. Order of screens: Rango dissoc inh | GLA inh pH 4.5 | miR-21 FLuc | Rango-impB inh
Cc1cccc(NC(=O)C2CCN(S(=O)(=O)c3cccs3)CC2)c1 as listed: 1% | 4 | 6% | 3.5%
COc1ccccc1NC(=S)NCCc1ccc(OC)c(OC)c1 as listed: -3% | / | -1% | -1.3%

Copied from the list.
C[C@H](CO)N1C[C@H](C)[C@@H](CN(C)Cc2ccc(C(=O)O)cc2)Oc2c(NS(=O)(=O)c3ccccc3)cccc2C1=O in Rango dissoc inh has 0%
O=C(N/N=C/c1ccc([N+](=O)[O-])o1)c1cn(-c2ccccc2)nc1-c1ccc(Cl)cc1 in miR-21 FLuc has -2%
COc1ccc(C2=NS(=O)(=O)N(C)C(C(=O)N3CCc4ccccc4C3)=C2)cc1OC in miR-21 FLuc has 26%

New compounds follow:
molecule,Rango dissoc inh,GLA inh pH 4.5,miR-21 FLuc,Rango-impB inh
COc1ccccc1/C=N/NC1=NCCCCC1,-6%,-5,1%,2.0%
Nc1scc2c(C(=O)O)nn(-c3ccccc3)c(=O)c12,-5%,/,/,?
O=C(COC(=O)c1c(F)cccc1F)NCCNC(=O)COC(=O)c1c(F)cccc1F,3%,/,-6%,2.3%
Fc1ccc(CN2CCN(c3ncnc4scc(-c5ccccc5)c34)CC2)cc1,12%,/,7%,5.2%
CCCNC(=S)N(Cc1cc2cc(C)ccc2n2nnnc12)CC(C)(C)CN(C)C,-10%,/,-5%,3.0%
O=C(N/N=C/c1cc2c3c(c1O)CCCN3CCC2)c1ccccc1O,?,-14,21%,?
CCN(CC)C(=O)[C@H]1C[C@H](CC(=O)NC(C)(C)C)C(=O)N2CCc3c([nH]c4cc(-c5ccco5)ccc34)[C@]12C,5%,/,/,?
O=C(O)c1ccc(Cl)c(NCc2cccnc2)c1,1%,/,0%,3.1%
COc1ccc(OC)c(C(=O)c2oc3ccccc3c2NC(C)=O)c1,-2%,-11,18%,5.7%
COc1cc2[nH]cc(C(=O)NCc3ccccc3)c(=O)c2cc1OC,-29%,/,-1%,-0.7%
COc1ccc(/C(N)=N/OC(=O)c2ccc([N+](=O)[O-])c(C)c2)cc1OC,7%,-5,-4%,3.4%
c1ccc(Cc2noc(CN3CCN(CCOc4ccccc4)CC3)n2)cc1,-8%,-5,1%,-3.4%
O=C(O)c1cc(-c2ccco2)nc2ccc(Br)cc12,2%&-2%,2&-15,-4%&-2%,-1.4%&-3.6%
Cc1ccc(NCc2ccc(O)c3ncccc23)cc1,0%,2,-4%,2.9%
Cc1ccc(Cl)cc1N1CCN(S(=O)(=O)c2cc3c(cc2C)NC(=O)CO3)CC1,4%,/,1%,1.3%
CCN1CCN(C(=O)C2=CC(c3ccc(OC)cc3)=NS(=O)(=O)N2C)CC1,2%,/,-1%,1.1%
Cn1cncc1C#Cc1c(-c2ccsc2)sc2ccccc12,?,/,/,5.9%
CN(C)CCN1CC(C(=O)O)CC1=O (configuration not stated),26%,2,2%,-2.8%
Cc1c(NC(=O)c2cc3nc(-c4ccc(Br)cc4)cc(C(F)(F)F)n3n2)c(=O)n(-c2ccccc2)n1C,-16%,3,-14%,-0.7%
CC(C)C(=O)Nc1ccc(C(=O)c2ccccc2)cc1,6%,-2,-64%,-3.6%
CCN(CC)c1ccc(/C=N/Nc2nc(C)cc(=O)[nH]2)c(O)c1,?,-13,4%,?
Cc1onc(-c2ccccc2)c1C(=O)NCCSCc1ccco1,16%,/,/,?
O=C(Nc1nc2cc(Cl)ccc2s1)C1CCCN(S(=O)(=O)c2cccc3cccnc23)C1 (configuration not stated),8%,-14,-1%,-1.2%
Cc1cc(NS(=O)(=O)c2ccc(NC(=O)CCCOc3ccccc3C)cc2)nc(C)n1,-8%,/,-2%,-0.9%
CCCNC(=O)CN1C(=O)NC(CCc2ccccc2)C1=O (configuration not stated),7%,1,-5%,4.6%

Arranged by formula weight (descending): some entries from above.
molecule,Rango dissoc inh,GLA inh pH 4.5,miR-21 FLuc,Rango-impB inh
CN(C)c1ccc(/C=N/NC(=O)c2ccc3c(c2)OCO3)cc1,-28%,/,-18%,?
Nc1scc2c(C(=O)O)nn(-c3ccccc3)c(=O)c12,-5%,/,/,?
Clc1ccc(-n2nnnc2-c2ccccc2)cc1,-8%,5,-5%,1.1%

Additional results.
molecule,Rango dissoc inh,GLA inh pH 4.5,miR-21 FLuc,Rango-impB inh
Cc1nc(NC(=O)c2ccc(OCC(C)C)cc2)sc1Cc1ccc2c(c1)OCO2,3%,-3,-11%,-0.2%
CCc1cc(=O)oc2cc(C)c(CN3CCCC3)c(O)c12,-12%,-5,0%,?
Nc1c(Cl)cc(-c2csc(NCCc3nc4cc(Cl)c(Cl)cc4n3CCCO)n2)cc1Cl,0%,/,4%,-1.9%
C=CCn1c(CCNC(=O)C(C)(C)C)nc2ccccc21,1%,1,-7%,0.7%
COc1ccc(NC(=O)Nc2nc3c(s2)CCCC3)cc1,-12%,-4,-35%,-0.3%
CN(C)c1cccc2cccc(N(C)C)c12,4%,3,0%,2.6%
CCOC(=O)C(c1ccccc1)C(Nc1ccc(Cl)c(Cl)c1)c1ccccn1 (configuration not stated),-1%,0,0%,2.7%
CCOc1ccc(NC(=O)CCn2c(=O)[nH]c3ccsc3c2=O)cc1,0%,1,-4%,-0.1%
Cc1ccc(C)c(N2CCN(C(=O)c3ccc4c(c3)c(C)c(C)n4C)CC2)c1,-4%,/,-1%&3%,-0.1%
O=c1cc[nH]c2c(Cl)cccc12,-7%,1,-25%,0.1%
CCn1cc(C(=O)O)c(=O)c2cc(F)c(N3CCNCC3)cc21,/,0&-1,-3%,/
CC(=O)c1ccc(N2CCCCCC2)c(F)c1,-3%,-1,-28%,2.2%
COCC(C)n1c(C)cc(C(=O)COC(=O)c2cc(=O)[nH]c3ccccc23)c1C (configuration not stated),-18%,/,/,-0.3%
COc1ccc2c(c1OC)CN1CCc3cc4c(cc3[C@@H]1[C@@H]2O)OCO4,-6%,0,-26%,2.2%
O=C(c1ccc(Cl)c(S(=O)(=O)N2CCOCC2)c1)N1CCOCC1,1%,/,1%,4.7%
CCn1c(C)nc2cc(C(=O)NNC(=O)c3ccc(C)cc3)ccc21,18%,/,/,4.6%
C/C(=N\NC(=O)c1cc(O)cc(O)c1)c1ccc(NC(=O)Cc2ccccc2)cc1,-2%,/,-33%,-2.2%
COc1ccc(OC)c(NC(=O)C(C)Oc2ccc(Br)cc2)c1 (configuration not stated),5%,0,-8%,1.2%
CN(C)/C=C/C(=O)c1ccc(S(=O)c2ccccc2)cc1 (configuration not stated),-11%,-7,-1%,4.4%
CCOc1ncccc1C(=O)OCC(=O)N1CCC(C)CC1,1%,/,/,0.6%
Nc1cccc2c1C(=O)N(C(=O)c1ccc(Cl)c(S(=O)(=O)N3CCCCCC3)c1)C2=O,?,2,-10%,?
CCc1cccc(CC)c1NC(=S)NCCc1c(C)[nH]c2ccc(C)cc12,1%,-15,22%,-3.1%
CCc1nnc(NC(=O)c2ccc(S(=O)(=O)N3CCCC(C)C3)cc2)o1 (configuration not stated),16%,/,15%,0.1%
C=CCn1c(CC(=O)Nc2cccc(OC)c2)nnc1SCC(=O)NC1CCCCC1,-3%,7,1%,-4.2%
CCOc1ccc(CCNC(=O)COC(=O)c2ccc(C)c([N+](=O)[O-])c2)cc1OCC,3%,/,2%,4.4%
Cc1ccc(S(=O)(=O)N2CCN(C(=O)CN3C(=O)NC4(CCCCC4)C3=O)CC2)c(C)c1,-20%,/,/,0.9%
COc1cccc(CC(NC(C)=O)C(=O)NC2CCN(S(=O)(=O)c3cccc4ccccc34)CC2)c1 (configuration not stated),6%,-19,-4%,7.6%
Cc1c(CN2CCC(n3nccc3NC(=O)c3cccc(F)c3)CC2)cnn1C,5%,/,1%,5.8%
[O-][n+]1onc2c1CCc1c-2nc(-c2ccccc2)n1OCc1ccccc1,0%,-5,-6%,-0.1%
COc1cc(NC(=O)c2cccs2)c(C(=O)OCC(=O)NC(=O)NCc2ccccc2)cc1OC,-18%,4,-4%,-0.3%
[O-][N+]1=C(c2cccs2)CN(O)C1,-1%,-1,-5%,-0.2%
Cc1ccnn1CC(=O)N/N=C/c1ccc2c(c1)OCO2,7%,-4,-3%,0.5%
CCOc1ncccc1C(=O)Nc1nnc(C)s1,-4%,-6,-1%,3.4%
O=C(CNC(=O)c1ccco1)NCC(=O)OCC(=O)c1ccc(Cl)c([N+](=O)[O-])c1,-2%,/,-3%,0.6%
Cc1oc(-c2cc(F)ccc2F)nc1CN1CCCN(C(=O)c2ccco2)CC1,-26%,5,-3%,1.6%

Compound activity as filed in PubChem.
